Assay outcomes deposited in PubChem by Broad Institute.
AF4-AF9 inh: inhibitors of human MLL-AF4/AF9 interaction. AlphaScreen, biotin-AF4 peptide binding to FLAG-AF9. P42568. inhibition, % at 10 µM. 350,000 compounds, 0.47% hits;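 active = every replicate reaching a set inhibition limit, whatever the replicate mean, cut at about 25% in these data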;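 also: 0% = plate neutral control median and 100% = total signal loss; the record names both 10 and 1 µM as test concentration; the first replicate is given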
Target sequence (P42568 whole entry, looked up): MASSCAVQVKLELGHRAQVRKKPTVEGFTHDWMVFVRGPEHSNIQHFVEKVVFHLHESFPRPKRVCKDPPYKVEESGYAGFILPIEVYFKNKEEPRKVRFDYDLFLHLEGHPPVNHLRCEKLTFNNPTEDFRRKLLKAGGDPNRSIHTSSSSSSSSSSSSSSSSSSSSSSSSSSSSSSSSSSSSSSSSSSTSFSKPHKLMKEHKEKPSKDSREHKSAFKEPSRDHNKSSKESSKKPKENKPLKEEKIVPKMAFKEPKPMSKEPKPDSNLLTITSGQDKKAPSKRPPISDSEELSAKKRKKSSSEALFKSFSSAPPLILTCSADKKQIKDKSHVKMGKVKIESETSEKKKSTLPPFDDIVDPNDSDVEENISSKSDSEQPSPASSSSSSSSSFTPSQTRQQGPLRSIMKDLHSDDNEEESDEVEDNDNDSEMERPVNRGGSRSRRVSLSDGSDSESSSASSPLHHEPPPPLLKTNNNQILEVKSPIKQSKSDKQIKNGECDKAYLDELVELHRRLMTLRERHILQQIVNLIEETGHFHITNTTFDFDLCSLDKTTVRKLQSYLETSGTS
FGF22 binding: binders of recombinant human FGF22 by thermal shift; SYPRO orange fluorescence; percent of sucrose octasulfate shift, DMSO zero; calls only at 9.99 µM; 340,000 compounds, 1.5% hits;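 active = melting point raised past a set limit in the mean and every replicate; three in four hits are not shown here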
Target sequence (Q9HCT0 whole entry, looked up): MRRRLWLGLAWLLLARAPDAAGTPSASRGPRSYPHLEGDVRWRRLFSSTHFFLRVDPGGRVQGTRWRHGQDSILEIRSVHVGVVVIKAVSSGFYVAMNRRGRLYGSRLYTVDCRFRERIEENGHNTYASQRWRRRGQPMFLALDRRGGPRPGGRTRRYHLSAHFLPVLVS
Ecoli rRNA inh: inhibits bacterial ribosomal RNA function over humanized ribosomes. E. coli WT GFP vs humanized-ribosome RFP mutants, fluorescence, 24 h; stronger effect = lower value; DMSO median 0, no signal -100. GFP signal change (wild-type ribosome), % (test concentration not listed). 350,000 compounds, 1.6% hits;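 active = significant combined selectivity score with lowered wild-type GFP, culture density cut under 30%, mutant RFP and density less affected; inactive = any of these conditions unmet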; also: one replicate is shown; some compounds called inactive have numbers as strong as hits
Ecoli rRNA inh OD600: second read-out of Ecoli rRNA inh, no call of its own (marks repeat the call); OD600 change, %; measured here: OD600 growth;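 optical density of the mix in the first replicate; 0 = DMSO median and -100 = no signal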
Ecoli rRNA inh RFP: recorded beside Ecoli rRNA inh, whose call it bears; RFP signal change, %; measured here: RFP humanized mutant strains;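 first replicate; 0 = DMSO median and -100 = no signal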
Active calls of the source: *; i = inactive; & = joins results of further samples.

Screens in order – AF4-AF9 inh	FGF22 binding	Ecoli rRNA inh	Ecoli rRNA inh OD600	Ecoli rRNA inh RFP
1. COc1ccc(NC(=O)N(C)C[C@H]2OCCCC[C@H](C)Oc3ccc(NC(=O)CCC(F)(F)F)cc3C(=O)N([C@@H](C)CO)C[C@@H]2C)cc1
  1.6	i	-3.7	-6.2	2.0
2. C[C@H](CO)N1C[C@H](C)[C@@H](CN(C)Cc2ccc(C(=O)O)cc2)Oc2ccc(NS(=O)(=O)c3ccc(F)cc3)cc2CC1=O
  -4.6	i	2.3	-5.2	-1.4
3. O=C(N[C@@H]1CC[C@H](CCn2cc(C3CC3)nn2)O[C@@H]1CO)c1cccnc1
  3.1	i	1.5	-1.5	-1.9
4. COc1cccc(C(=O)Nc2ccc3c(c2)C(=O)N(C)C[C@H](OC)[C@@H](C)CN(C)[C@H](C)CO3)c1
  -2.2	i	0.1	-5.8	-0.7
5. C[C@@H]1CN([C@H](C)CO)C(=O)c2cccc(NC(=O)c3cnccn3)c2O[C@H]1CN(C)C(=O)Nc1ccc(F)cc1
  -2.9	i	-3.1	3.2	-1.6
6. CC1(C(=O)NS(=O)(=O)c2ccc(Cl)cc2)CCN1C(=O)Cc1ccccc1Cl (centres undefined)
  -7.4	i	2.0	-2.1	-0.1
7. C[C@H](CO)N1C[C@H](C)[C@H](CN(C)C(=O)NC2CCCC2)OCc2cn(nn2)CCCC1=O
  0.4	i	-1.2	3.3	-1.7
8. COc1ccc(NC(=O)Nc2ccc3c(c2)CC(=O)N([C@H](C)CO)C[C@H](C)[C@H](CN(C)Cc2ccncc2)O3)cc1
  0.2	i	-4.8	-5.2	-2.3
9. C[C@@H]1CN([C@@H](C)CO)C(=O)Cc2cc(NC(=O)CCC(F)(F)F)ccc2O[C@H]1CN(C)Cc1ccc(Cl)c(Cl)c1
  4.3	i	-8.6	-26.9	9.1
10. C[C@H](CO)N1C[C@H](C)[C@H](CN(C)C(=O)c2ccccc2)OCCCC[C@H](C)Oc2ccc(NS(C)(=O)=O)cc2C1=O
  -12.9	i	-0.6	-3.4	0.5
11. CC1CCC(C(O)(C(=O)c2ccccc2)c2ccccc2)C(=O)C1 (centres undefined)
  -4.0	i	-11.9	-31.8	-2.7
12. O=C1CN(S(=O)(=O)c2ccccc2)C[C@H]2[C@@H](c3ccc(Br)cc3)[C@@H](CO)N12
  0.9	i	-5.9	-5.6	3.1
13. C[C@@H]1CN([C@@H](C)CO)C(=O)c2cccc(NC(=O)C3CCCCC3)c2O[C@@H]1CN(C)Cc1ccc2c(c1)OCO2
  1.3	i	2.1	-0.7	2.1
14. C[C@@H]1CN([C@H](C)CO)C(=O)c2cccc(NS(=O)(=O)c3cn(C)cn3)c2O[C@H]1CN(C)Cc1ccc2c(c1)OCO2
  0.5	i	2.6	7.2	1.1
15. Cc1ccc(-c2ccc3c(c2)O[C@@H](CN(C)C(=O)CC2CC2)[C@@H](C)CN([C@@H](C)CO)S3(=O)=O)cc1
  -4.0	i	-21.1	-57.3	32.0

Fetched one by one from the list above, 5 records:
Screens in order – AF4-AF9 inh	FGF22 binding	Ecoli rRNA inh	Ecoli rRNA inh OD600	Ecoli rRNA inh RFP
8. COc1ccc(NC(=O)Nc2ccc3c(c2)CC(=O)N([C@H](C)CO)C[C@H](C)[C@H](CN(C)Cc2ccncc2)O3)cc1
  0.2	i	-4.8	-5.2	-2.3
11. CC1CCC(C(O)(C(=O)c2ccccc2)c2ccccc2)C(=O)C1 (centres undefined)
  -4.0	i	-11.9	-31.8	-2.7
2. C[C@H](CO)N1C[C@H](C)[C@@H](CN(C)Cc2ccc(C(=O)O)cc2)Oc2ccc(NS(=O)(=O)c3ccc(F)cc3)cc2CC1=O
  -4.6	i	2.3	-5.2	-1.4
9. C[C@@H]1CN([C@@H](C)CO)C(=O)Cc2cc(NC(=O)CCC(F)(F)F)ccc2O[C@H]1CN(C)Cc1ccc(Cl)c(Cl)c1
  4.3	i	-8.6	-26.9	9.1
15. Cc1ccc(-c2ccc3c(c2)O[C@@H](CN(C)C(=O)CC2CC2)[C@@H](C)CN([C@@H](C)CO)S3(=O)=O)cc1
  -4.0	i	-21.1	-57.3	32.0

Next part:
Screens in order – AF4-AF9 inh	FGF22 binding	Ecoli rRNA inh	Ecoli rRNA inh OD600	Ecoli rRNA inh RFP
16. O=C(COC(=O)/C=C/c1cccc(F)c1)NC1CCCCC1
  3.5	i	14.5	17.5	0.2
17. C[C@H]1CN([C@@H](C)CO)C(=O)c2cc(NS(=O)(=O)c3cccs3)ccc2O[C@H]1CN(C)Cc1ccc(Cl)c(Cl)c1
  2.5	i	-9.2	-45.4	22.5
18. COc1ccc2c3c(n(C)c2c1)[C@@H](CO)N(S(C)(=O)=O)CC31CCN(C(=O)C2CCC2)CC1
  4.3	i	-4.5	-7.7	-2.7
19. COCCNC(=O)C1(C)CCCN(C(=O)c2ccc3snnc3c2)C1 (centres undefined)
  -1.2	i	8.2	23.9	-0.5
20. C[C@H](CO)N1C[C@H](C)[C@@H](CN(C)CC2CCCCC2)Oc2c(NC(=O)C3CCCCC3)cccc2C1=O
  5.5	i	1.3	6.2	-2.0
21. CC(C)C[C@H]1COc2cccc(N3CCC[C@@H]3CO)c2S(=O)(=O)N1
  -1.9	i	-20.5	-16.9	-0.3
22. Cn1cnc(S(=O)(=O)N[C@@H]2CC[C@@H](CC(=O)NCC3CCCCC3)O[C@H]2CO)c1
  -11.3	i	2.7	3.2	-1.1
23. COc1cc2c(NCCCCCCO[N+](=O)[O-])ncnc2c(OC)c1OC
  4.1	i	-3.3	0.1	4.0
24. COc1ccc(S(=O)(=O)N2CCCCN3[C@H](CO)[C@@H](c4ccc(C#CC5CC5)cc4)[C@@H]3C2)cc1
  -5.1	i	0.7	4.4	-0.3
25. COCC(=O)Nc1ccc2c(c1)C(=O)N(C)C[C@@H](OC)[C@H](C)CN(Cc1cncnc1)[C@H](C)CO2
  -2.8	i	4.5	3.9	1.7
26. O=C(C[C@@H]1C[C@H]2c3cc(NC(=O)C4CCOCC4)ccc3O[C@H]2[C@@H](CO)O1)NCc1ccc(Oc2ccccc2)cc1
  -0.1	i	7.2	1.9	-0.7
27. C[C@@H]1CN([C@@H](C)CO)C(=O)c2cccc(NS(=O)(=O)c3ccc(Cl)cc3)c2O[C@@H]1CN(C)S(=O)(=O)c1cccs1
  1.1	i	-7.5	-7.9	2.4
28. CO[C@H]1CN(C)C(=O)c2ccc(NS(=O)(=O)c3ccccc3)cc2OC[C@@H](C)NC[C@H]1C
  -5.2	i	3.3	4.3	-0.1
29. C[C@@H]1CN([C@@H](C)CO)C(=O)c2cc(NC(=O)Nc3ccc4c(c3)OCO4)ccc2O[C@@H](C)CCCCO[C@@H]1CN(C)C(=O)Nc1ccccc1
  4.4	i	3.1	2.3	-2.4
30. COCCNC(=O)C[C@H]1CC[C@@H]2[C@H](COc3ccc(NC(=O)Nc4ccccc4)cc3C(=O)N2C)O1
  -0.7	i	2.0	1.8	-2.8
31. C[C@H]1CN([C@@H](C)CO)C(=O)c2cc(NC(=O)Nc3ccc(F)cc3)ccc2O[C@H]1CN(C)Cc1ccc(C(=O)O)cc1
  -3.0	i	-1.6	2.4	-1.5
32. CCCNC(=O)C[C@H]1CC[C@H]2[C@H](COc3ccc(NC(=O)c4cscn4)cc3C(=O)N2C)O1
  -2.2	i	1.2	6.5	0.0
33. COc1ccc2c3c(n(C)c2c1)[C@H](CO)N(C(=O)C1CC1)CC31CN(C(=O)Nc2cccc(F)c2)C1
  -1.5	i	-3.0	-3.1	-0.8
34. C[C@@H]1CN([C@H](C)CO)S(=O)(=O)c2ccc(-c3cccnc3)cc2O[C@@H]1CN(C)Cc1ccccn1
  0.9	i	4.1	-3.0	1.7
35. O=C(Nc1c(F)c(F)c(F)c(F)c1F)OC[C@@H]1CSCCS(=O)(=O)N1
  -2.7	i	12.0	7.3	-0.8
36. CCOc1ccc(CCN2C(=O)C(=O)N([C@@H](CC(C)C)CN3CCC[C@H]3CN3C(=O)C(=O)NC[C@@H]3Cc3ccccc3)C[C@@H]2Cc2ccc(O)cc2)cc1
  2.3	i	-9.4	-11.4	3.0
37. CC(C)NC(=O)N(C)C[C@@H]1Oc2cc(C3=CCCCC3)ccc2S(=O)(=O)N([C@H](C)CO)C[C@H]1C
  2.5	i	-2.9	-11.3	0.8
38. C[C@@H]1CN([C@@H](C)CO)C(=O)c2cccc(NC(=O)Nc3ccc4c(c3)OCO4)c2O[C@H]1CN(C)CC1CCCCC1
  6.6	i	-8.9	-16.4	-1.5
39. C[C@@H]1CN([C@@H](C)CO)S(=O)(=O)c2ccc(-c3cccnc3)cc2O[C@@H]1CN(C)C
  -1.4	i	2.6	14.3	3.3
40. O=C(C[C@@H]1CC[C@H]2[C@@H](COC[C@H](O)CN2Cc2ccc(F)cc2)O1)NCCc1ccccc1
  -2.0	i	-1.5	1.9	-0.2
41. Cc1ccc(-c2ccc3c(c2)O[C@@H](CN(C)C(=O)C2CC2)[C@@H](C)CN([C@@H](C)CO)S3(=O)=O)cc1
  1.6	i	-2.1	-21.6	4.1
42. C[C@@H]1CN([C@@H](C)CO)C(=O)c2cc(NC(=O)Cc3ccccc3)ccc2O[C@H]1CN(C)Cc1ccc2c(c1)OCO2
  0.6	i	1.5	3.0	-0.1
43. C[C@@H]1CN([C@H](C)CO)C(=O)Cc2cc(NS(=O)(=O)c3ccc(Cl)cc3)ccc2O[C@H]1CN(C)Cc1ccc2c(c1)OCO2
  1.4	i	-21.1	-33.8	8.0
44. C[C@@H]1CN([C@@H](C)CO)S(=O)(=O)c2ccc(Br)cc2O[C@H]1CN(C)C(=O)Nc1ccc2c(c1)OCO2
  2.6&0.7	i	-2.1&-1.9	5.1&-1.8	4.5&0.8
45. C[C@H]1CN([C@@H](C)CO)C(=O)c2cccc(NS(=O)(=O)c3ccccc3)c2O[C@@H]1CN(C)Cc1ccc(C(=O)Nc2ccccc2N)cc1
  0.4	i	0.2	9.0	-1.0
46. C[C@@H]1CN([C@H](C)CO)C(=O)Cc2cc(NC(=O)Cc3cn(C)c4ccccc34)ccc2O[C@H]1CN(C)C(=O)Nc1ccc(F)cc1
  -2.8	i	2.7	1.2	1.4
47. O=C(C[C@@H]1CC[C@H]2[C@@H](COC[C@@H](O)CN2Cc2cccc(-c3ccncc3)c2)O1)N1CCCCC1
  -0.6	i	-1.9	-3.6	3.0
48. O=C(N[C@H]1C=C[C@H](CC(=O)N2CCOCC2)O[C@@H]1CO)c1cccc(F)c1
  -1.2	i	0.2	-0.5	-1.8
49. CCCNC(=O)N(C)C[C@@H]1Oc2cc(C#C[C@H](C)O)ccc2S(=O)(=O)N([C@@H](C)CO)C[C@@H]1C
  -2.7	i	6.2	7.3	-1.9
50. COc1ccc(C#Cc2cnc3c(c2)C(=O)N([C@@H](C)CO)C[C@H](C)[C@H](CN(C)C)O3)cc1
  4.5	i	4.1	7.7	-1.4
51. CC(C)C[C@H]1CN(CCCC[C@H]2CNC(=O)C(=O)N2CCc2ccccc2)C(=O)C(=O)N1CCc1ccc(O)cc1
  1.0	i	3.2	-2.8	2.2
52. O=C(C[C@@H]1CC[C@@H]2NC[C@@H](O)COC[C@H]2O1)NCc1ccc(Oc2ccccc2)cc1
  7.5	i	4.2	6.4	2.6
53. COc1ccc(S(=O)(=O)N(C)C[C@@H]2Oc3ccc(NC(=O)Cn4cnnn4)cc3CC(=O)N([C@@H](C)CO)C[C@@H]2C)cc1
  -0.5	i	3.3	3.4	2.0
54. CCCN(C)C[C@H]1Oc2cc(C#CC(C)(C)O)ccc2S(=O)(=O)N([C@@H](C)CO)C[C@H]1C
  2.1	i	10.5	28.3	-1.9
55. O=C(c1cccc(F)c1)N1C[C@@H]2[C@H](c3ccccc31)[C@H](CO)N2C(=O)C1CC1
  -0.6	i	2.1	2.2	-1.3
56. Nc1cc2[nH]c(=O)c3ccccc3c2cc1Br
  -0.8	i	14.1	-19.1	-2.3
57. CN(C)CCCNC(=O)C[C@@H]1CC[C@@H](NS(=O)(=O)c2ccc(F)cc2)[C@H](CO)O1
  -0.2	i	3.2	7.2	-2.3
58. O=C(C[C@@H]1C[C@H]2c3cc(NC(=O)c4cccnc4)ccc3O[C@H]2[C@H](CO)O1)NCc1ccc(Oc2ccccc2)cc1
  -2.6	i	-13.8	-38.1	-1.4
59. Cc1c(C(=O)N2CCCC2(C)C(=O)NCC(C)C)oc2ccccc12 (centres undefined)
  -0.9	i	-4.1	-6.5	2.2
60. Cc1ccc(S(=O)(=O)N2C[C@H]3[C@H]4C(=O)N(c5ccccc5)C(=O)[C@H]4CC(=O)[C@H]3[C@@H]2c2ccccc2)cc1
  -3.0	i	6.1	4.3	3.1
61. Cc1cn(CC(=O)NCCc2ccccn2)c(=O)[nH]c1=O
  -2.2	i	11.5	21.8	-0.9
62. Cc1cc(C(=O)Nc2cccc3c2O[C@@H](CN(C)C(=O)Nc2ccccc2)[C@@H](C)CN([C@H](C)CO)C3=O)n(C)n1
  -4.1	i	-5.3	1.4	-1.0
63. C[C@H](CO)N1C[C@H](C)[C@H](CN(C)Cc2ccccc2)Oc2ncc(-c3cccc(F)c3)cc2C1=O
  2.8&-1.3	i	2.9	2.6	2.2
64. CC=Cc1ccc2n(c1=O)C[C@@H]1[C@@H](CO)[C@H](C(=O)N(C)C)[C@H]2N1CC1CCCCC1 (mixture of isomers)
  -1.2	i	1.9	-5.6	-1.0

Only part of the results is shown; the hit share may differ from the screen's.
